STK33 inh: inhibitors of purified STK33 kinase, primary screen, biochemical, ADP-Glo luminescence, homogeneous, cell-free | actives 0.073% (n = 320,000) | inhibition, % at 10 µM | MBP phosphorylation | AID 2661, 2010;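 active = inhibition at or above 25%, using the most active replicate where run in duplicate; inactive = inhibition below 25%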
Target sequence (Q9BYT3 whole entry, looked up): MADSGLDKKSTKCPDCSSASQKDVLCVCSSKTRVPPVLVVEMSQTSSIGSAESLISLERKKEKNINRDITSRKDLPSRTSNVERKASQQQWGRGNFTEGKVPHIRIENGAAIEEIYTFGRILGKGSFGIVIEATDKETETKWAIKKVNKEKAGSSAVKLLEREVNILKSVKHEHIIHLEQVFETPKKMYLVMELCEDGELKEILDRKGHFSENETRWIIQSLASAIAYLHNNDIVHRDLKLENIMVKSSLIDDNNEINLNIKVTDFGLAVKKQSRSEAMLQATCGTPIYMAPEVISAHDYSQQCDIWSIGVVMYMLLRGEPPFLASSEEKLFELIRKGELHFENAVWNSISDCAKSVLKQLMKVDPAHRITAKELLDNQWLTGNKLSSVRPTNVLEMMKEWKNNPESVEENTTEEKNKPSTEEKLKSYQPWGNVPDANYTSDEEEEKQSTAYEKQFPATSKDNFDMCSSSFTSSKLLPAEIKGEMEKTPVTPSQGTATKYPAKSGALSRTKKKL
An asterisk follows results filed as active.

STK33 inh	canonical_smiles
0.3	Cc1ccc(S(=O)(=O)NC(C)C(=O)Nc2ccc3c(c2)OCO3)cc1 (stereo not given)
-1.5	CCn1cc(S(=O)(=O)Nc2nc3ccc(OC)cc3s2)cn1
-1.6	Cc1ccc(NC(=O)C2(S(=O)(=O)c3ccc(C)cc3)CC2)cc1
8.1	CCC(CC)NC(=O)c1oc2ccccc2c1COc1ccccc1
0.1	COc1ccc(NC(=O)C2CCC2)cc1S(=O)(=O)Nc1cc(C)ccc1Br
0.8	O=C(c1ccco1)N1CCn2c1nc1ccccc12
-2.0	O=C(CCn1cnc2ccccc2c1=O)Nc1cccc(Cl)c1Cl
-0.5	Cc1[nH]nc(Nc2ccc(C(C)C)cc2)c1[N+](=O)[O-]
-1.0	CC1(c2ccccc2)CC(C)(C)N(C(N)=O)c2ccccc21 (stereo not given)
1.0	Cc1cccc(NC(=O)CCCN2C(=O)C3CC=CCC3C2=O)c1 (stereo not given)
-2.7	CCC(C)[C@H](NC(=O)N1CC(=O)Nc2ccccc21)C(=O)N[C@@H](Cc1c[nH]c2ccccc12)C(=O)O (stereo not given in full)
-2.4	COc1ccc(C(C(=O)NC(C)(C)C)N(CC2CCCO2)C(=O)CCC(=O)Nc2cc(C)on2)cc1 (stereo not given)
-1.7	CSc1ccc(S(=O)(=O)N(C)Cc2ccccc2)cc1
0.8	CCSCc1nnc(SCC(=O)Nc2cccc(SC)c2)n1C
-1.2	Cc1ccccc1NC(=O)COC(=O)CCSc1ccccc1

Reprinted from the part before: 4 entries; new compounds follow.
STK33 inh	canonical_smiles
-2.4	COc1ccc(C(C(=O)NC(C)(C)C)N(CC2CCCO2)C(=O)CCC(=O)Nc2cc(C)on2)cc1 (stereo not given)
-1.7	CSc1ccc(S(=O)(=O)N(C)Cc2ccccc2)cc1
0.8	CCSCc1nnc(SCC(=O)Nc2cccc(SC)c2)n1C
-1.2	Cc1ccccc1NC(=O)COC(=O)CCSc1ccccc1
-0.4	COc1cc(/C=C/C(=O)N2CCN(C(=O)/C=C/c3cc(OC)c(OC)c(OC)c3)CC2)cc(OC)c1OC
-1.0	Cc1ccc(S(=O)(=O)N2CCCN(S(=O)(=O)c3ccc(C)cc3)CC2)cc1
-1.1	COc1ccc(-n2c(SCc3ccc([N+](=O)[O-])cc3)nnc2-c2ccccc2)cc1
-0.8	COCCOc1ccc(C(F)(F)F)cc1NC(=O)COC(=O)Cc1c[nH]c2ccccc12
-1.5	O=C(c1ccc2c(c1)C(=O)N(c1ccc(Cl)cc1)C2=O)N1CCN(c2ccccn2)CC1
2.7	O=C(O)C1=C[C@@H](c2coc3ccccc3c2=O)C[C@@H](OCc2ccc(CO)cc2)O1
-3.1	Cc1ccc2nc(SCc3cn4c(C)cc(C)nc4n3)[nH]c2c1
-0.2	CCOc1cc(N2CCOCC2)c(OCC)cc1NC(=O)COC(=O)c1cccc2ccccc12
-1.3	Cc1nnc(SCC(=O)NC(=O)NCc2ccco2)s1
-0.5	CCOc1ccccc1NC(=S)N1CCC(NC(=O)C(C)(C)C)CC1
-0.2	O=C(COC(=O)c1ccc(OC(F)F)cc1)NCCCN1CCCC1=O
-1.5	Cc1cc(=O)n2nc(N3CCCC(C(=O)NCc4ccc5c(c4)OCO5)C3)sc2n1 (stereo not given)
-0.7	Cc1c(OC(C)C(=O)NCCN2CCOCC2)ccc2c3c(c(=O)oc12)CCCC3 (stereo not given)
-1.9	CC1(Cc2cn(CCC#N)c3ccccc23)OCCO1
-0.7	COc1ccc(CCC(=O)NCCc2ccc(Cl)cc2)cc1

Sorted by length of the SMILES (highest first): part of the list above
STK33 inh	canonical_smiles
-2.4	COc1ccc(C(C(=O)NC(C)(C)C)N(CC2CCCO2)C(=O)CCC(=O)Nc2cc(C)on2)cc1 (stereo not given)
-1.1	COc1ccc(-n2c(SCc3ccc([N+](=O)[O-])cc3)nnc2-c2ccccc2)cc1
-1.0	Cc1ccc(S(=O)(=O)N2CCCN(S(=O)(=O)c3ccc(C)cc3)CC2)cc1
-1.5	CCn1cc(S(=O)(=O)Nc2nc3ccc(OC)cc3s2)cn1
-0.7	COc1ccc(CCC(=O)NCCc2ccc(Cl)cc2)cc1
-1.2	Cc1ccccc1NC(=O)COC(=O)CCSc1ccccc1
-1.3	Cc1nnc(SCC(=O)NC(=O)NCc2ccco2)s1

The results go on.
STK33 inh	canonical_smiles
-1.2	COc1ccc(Cl)cc1NC(=O)CN(C)C(=O)CCSc1ccc(C)cc1
0.4	Cc1ccc(C)c(NC(=O)c2ccc(OC(=O)c3ccco3)cc2)c1
-0.4	CCOC(=O)/C(=N/Nc1ccc(Cl)cc1)Sc1nnnn1-c1ccc(C)cc1
0.0	COC(=O)c1c(NC(=O)c2cccs2)sc2c1CCCC2
0.0	CCCn1nnnc1SCC(=O)Nc1nnc(CC)s1
-1.5	Cc1nn(C(=O)c2c(-c3ccccc3)noc2C)c(C)c1N=Nc1cc(C(F)(F)F)cc(C(F)(F)F)c1
0.0	O=C(CNC(=O)c1cncc(Br)c1)Nc1ccc(F)c(F)c1F
0.1	O=C(Nc1cccc(NS(=O)(=O)c2ccc(S(=O)(=O)NC3CC3)cc2)c1)c1ccccn1
-1.0	Cc1cc(C(=O)NCC(C)(C)N2CCOCC2)c(C)o1
-0.1	Cc1ccc(N2CC(C(=O)NCc3ccc4c(c3)OCO4)CC2=O)cc1C (stereo not given)
0.8	O=C(CSCc1ccccc1)Nc1cc([N+](=O)[O-])ccc1F
0.9	CCCCN(Cc1ccco1)S(=O)(=O)c1ccc(-c2ccc(=O)[nH]n2)s1
1.3	COC(=O)C1(C)NC(c2ccc(Cl)cc2)C2C(=O)N(c3ccccc3)C(=O)C21 (stereo not given)
-0.3	Cc1ccc(/C=N\NC(=O)/C(=C\Nc2nccc(C)n2)NC(=O)c2ccccc2)cc1
0.8	O=S(=O)(c1ccc2ccccc2c1)N1CCNCC1
-0.2	COc1ccc(C(c2nnnn2CCc2ccccc2)N2CCN(C3CCCC3)CC2)cc1OC (stereo not given)
0.2	COC(=O)[C@H](Cc1ccccc1)NC(=O)O[C@@H]1C(=O)c2cc(Br)ccc2O[C@H]1c1cccc(OC)c1
0.6	O=C(CN1CCCc2ccccc21)NCc1ccc2c(c1)OCO2
-0.3	O=C(Nc1ccc(N2CCN(Cc3ccccc3Cl)CC2)cc1)c1cccnc1
-0.1	CCOc1ccc2nc(N/C(N)=N/C(=S)Nc3ccc(OC)cc3)nc(C)c2c1
-1.6	Cc1ccsc1C(=O)OCC(=O)NCc1ccco1
-0.7	NC(=O)N/N=C/C=C/c1ccccc1
-2.3	COc1ccccc1NC(=O)Nc1ccccc1C(N)=O
-2.7	O=[N+]([O-])c1ccccc1/C=C/C=N/n1c(-c2ccccc2)n[nH]c1=S
5.1	COc1ccc(/C=C/C(=O)Nc2ccncc2)cc1OC
-1.0	CCCCc1nnc(NC(=O)CN(C)S(=O)(=O)c2ccc(C)cc2)s1
-2.0	CC(C)(C)n1ncc2c(=O)n(Cc3ccc(Cl)cc3Cl)cnc21
-1.1	CCSc1nnc(Cc2cc(=O)[nH]c(=O)[nH]2)n1-c1ccc(F)cc1
-2.3	Fc1ccc(NC(=S)NC2CC3CCC(C2)N3Cc2ccco2)cc1 (stereo not given)
-1.5	CN1/C(=C\C(=O)c2cccnc2)C(C)(C)c2ccccc21
-0.5	NC(=O)CC(NC(=O)c1ccccc1)c1ccc(NCCN2CCCCC2)c([N+](=O)[O-])c1 (stereo not given)
-0.7	CC(=O)OCC1(C)CN(c2ccccc2)NC1=O (stereo not given)
0.6	COc1ccc(-c2noc(CCCC(=O)NCc3ccco3)n2)cc1OC
0.3	COC(=O)c1ccc(-c2ncc(-c3cccc4ccccc34)o2)cc1
-2.4	Cc1cc(SCC(=O)Nc2ccccc2)n2ncc(-c3ccccc3)c2n1
0.0	Cc1cc(C)c(N)cc1C
-1.3	O=S(=O)(NCCCc1ccccc1)c1ccc(F)c(F)c1
-0.2	N#CCSc1n[nH]c2nc3c(c(=O)n12)C1(CCCC1)Cc1ccccc1-3
-1.6	COc1ccc2c(c1OC)C(=O)N1N=C(c3ccc(F)cc3)CC21 (stereo not given)
-0.4	CCOC(=O)C(=CNc1ccc(N2CCOCC2)cc1)C(=O)OCC
-0.1	CCc1nnc(NC(=O)C2CCN(S(=O)(=O)c3ccc(C)cc3)CC2)s1
0.5	Cc1ccccc1CCN(C(=O)Cn1nnc2ccccc21)C(C(=O)NCC1CCCO1)c1nc2ccccc2n1C (stereo not given)
-0.6	CCOc1ccc(C(C(=O)NC2CCCC2)N(Cc2ccccc2)C(=O)c2nsc(Cl)c2Cl)cc1 (stereo not given)
-1.3	COc1ccc(N2CCN(c3ccc4nnc(CCC(=O)Nc5ccc(C)cc5)n4n3)CC2)cc1
0.6	N=C1C(=O)OCC1c1ccccc1NC(=O)Nc1ccccc1 (stereo not given)
-0.4	CCSc1nnc(Cc2cc(=O)[nH]c(=O)[nH]2)n1-c1cccc(C)c1
1.6	CC(=O)C1=C(O)C(=O)N(c2ccc(Br)cn2)C1c1ccc(Br)cc1 (stereo not given)
0.3	Cc1ccc(/C=N/NC(=O)c2ccncc2)s1
-0.2	COc1ccc(Cl)cc1NC(=O)CN(C)C(=O)CSc1ccc2c(c1)OCCO2
-0.3	Cc1ccccc1NC(=O)c1sc(NC(=O)C2CC2)nc1C
-1.3	CCN(CC)S(=O)(=O)c1ccc(N2CCOCC2)c(NC(=O)CC2OC(=O)c3ccccc32)c1 (stereo not given)
-1.1	COc1ccc(N2C(=O)C(Cl)=C(Oc3cccc(OC)c3)C2=O)cc1
0.2	COCCn1c(C)cc(C(=O)CSc2nnc(C)s2)c1C
0.3	CCn1ccnc1CN(C)Cc1nc(CCC(C)C)no1
-0.2	Cn1nnnc1Sc1ncnc2scc(-c3cccc(F)c3)c12
0.0	Cc1cc(NC(=O)CSc2nnc(-c3cccc(Cl)c3)o2)no1
0.4	Cc1c(NC(=O)C2CC(c3c(F)cccc3Cl)=NO2)c(=O)n(-c2ccccc2)n1C (stereo not given)
-1.0	Cc1ccc(C2=NN(C(=O)CN3C(=O)c4ccccc4S3(=O)=O)C(c3ccco3)C2)cc1 (stereo not given)
-0.8	O=C(Nc1ccc(Cl)cn1)c1cnn2cccnc12
5.3	CN1CCN(c2ccc(Cl)cc2NC(=O)c2ccc([N+](=O)[O-])cc2)CC1

Next section.
STK33 inh	canonical_smiles
-0.1	CN(C)S(=O)(=O)c1cc(NC(=O)c2ccc(-n3ccnc3)c([N+](=O)[O-])c2)ccc1Cl
-2.0	Cc1ccccc1C1NC(=O)c2ccccc2O1 (stereo not given)
-2.3	CCOC(=O)C1CCN(C(=O)C2CCN(c3nc4ccc(OC)cc4s3)CC2)CC1
-0.3	Cc1cccc(Oc2ccc(N)cc2)c1
-0.3	N#Cc1nc(-c2ccco2)oc1NCCc1ccccc1
-2.0	CCCCn1c(=O)c(CCC(=O)OC(C)C(=O)Nc2cccc(Cl)c2Cl)nc2ccccc21 (stereo not given)
0.8	O=C(Nc1ccccc1F)C1CC1c1ccccc1 (stereo not given)
-2.1	CCn1nc(C(=O)OCC(=O)N2c3ccccc3CC2C)c2ccccc2c1=O (stereo not given)
-1.8	COc1cc(OC)cc(C(=O)NC(=S)Nc2cccnc2)c1
-2.0	CS(=O)(=O)NCCCCNc1ccc(C(F)(F)F)cc1[N+](=O)[O-]
-1.9	COc1ccc(-c2cc(CNC(=O)CN(C)Cc3ccccc3)on2)cc1
-3.4	COc1ccc(-c2nnc(SCC(=O)NCCC(C)C)nc2-c2ccc(OC)c(OC)c2)cc1OC
0.8	COc1ccccc1-c1cc(C(=O)N/N=C/c2cccs2)c2ccccc2n1
-2.4	O=C(c1ccc(Br)cc1)N1CCC2(CC1)NCCc1[nH]cnc12
-1.5	Cc1cc(C(=O)NCC(=O)OCC(=O)N(C(C)C)C(C)C)ccc1[N+](=O)[O-]
4.7	COc1ccc(C2Nc3ccccc3C(=O)N2NS(=O)(=O)c2ccccc2)c(OC)c1 (stereo not given)
-0.7	CCCc1cc2c(=O)c(-c3ccc4c(c3)OCCO4)coc2cc1OS(C)(=O)=O
-1.8	CCCc1nn2c(=O)cc(COc3ccc(NC(=O)c4ccco4)cc3)nc2s1
0.3	Cc1cccc(OCC(=O)N/N=C/c2ccc3c(c2)OCO3)c1
-0.1	CCCCN(C(=O)c1ccc(N(C)S(=O)(=O)c2ccc(C)cc2)cc1)c1c(N)n(CCC)c(=O)[nH]c1=O
-2.8	CCCCCN(C(=O)NC(=O)Nc1ccccc1C)S(C)(=O)=O
-0.6	CCC(C(=O)OCC(=O)NC1CCS(=O)(=O)C1)c1ccccc1 (stereo not given)
0.6	CCCC(c1nnnn1CCC(C)C)N1CCC(C(N)=O)CC1 (stereo not given)
-2.5	Cc1nnc(N(CCC#N)CCC#N)s1
15	O=C(c1ccccc1)c1c(O)nc(-c2ccccc2)n(-c2ccccc2)c1=O
5.7	O=C(COC(=O)C1(c2ccc(Cl)cc2)CCCC1)NCc1ccco1
-0.6	COc1ccccc1/C=C(\NC(=O)c1ccc(OC)c(OC)c1)C(=O)Nc1cccc([N+](=O)[O-])c1
-0.5	Cc1nnsc1NC(=O)OCc1ccc(C(C)(C)C)cc1
-0.5	CCN1CCCC1CNC(=O)C(=O)Nc1cccc(OC)c1 (stereo not given)
-0.8	CCOC(=O)C1Nc2c(F)cc(C)cc2C2c3ccccc3CC12 (stereo not given)
-0.1	COCCN=C1NC(=O)C(CC(=O)Nc2cccc(Cl)c2C)S1 (stereo not given)
-0.6	CCc1nn(CC(=O)NCCCN(C)Cc2ccccc2)c(=O)c2cc3sc(C)cc3n12
-0.4	C=CCNCCOc1cccc(Br)c1

From PubChem

Some of the compounds tested; most or all hits stand in other tables.
